Cruzain inh Det – qHTS Assay for Promiscuous and Specific Inhibitors of Cruzain (with detergent); purified cruzain, Z-FR-AMC fluorescence, 0.01% Triton; actives 0.43% (n = 200,000); Cruzipain (Trypanosoma cruzi), P25779; Potency, µM, for the others: max response, negative = inhibition, hits mostly inhibitors;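 note: plate controls were neutral wells for no effect and buffer without enzyme for full effect; nearly all actives have a fitted effect of over 40% in size; top concentration of the series not given in the record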
Target sequence (P25779 123-467 limits assumed): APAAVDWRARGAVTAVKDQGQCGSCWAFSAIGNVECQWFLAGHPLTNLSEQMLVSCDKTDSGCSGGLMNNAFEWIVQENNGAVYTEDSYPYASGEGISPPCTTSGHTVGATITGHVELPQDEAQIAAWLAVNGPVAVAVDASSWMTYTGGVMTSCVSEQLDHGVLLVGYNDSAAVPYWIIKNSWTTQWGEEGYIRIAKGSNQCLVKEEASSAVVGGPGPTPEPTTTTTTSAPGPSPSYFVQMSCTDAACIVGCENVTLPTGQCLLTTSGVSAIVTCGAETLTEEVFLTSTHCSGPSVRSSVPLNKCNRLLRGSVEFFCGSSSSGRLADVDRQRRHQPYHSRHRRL
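Enzyme 1.5 nM, Z-FR-AMC 2 uM, NaOAc 100 mM pH 5.5, DTT 5 mM, Triton X-100 0.01%; 15 min RT compound preincubation; kinetic ex360/em450, 60 s delta.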
Cruzain inh noDet – qHTS Assay for Promiscuous and Specific Inhibitors of Cruzain (without detergent) | AID 1476, 2009 | Cruzipain (Trypanosoma cruzi), P25779 | Potency, µM, without a hit: max response, negative = inhibition, hits mostly inhibitors | actives 2.3% (n = 200,000) | purified cruzain, Z-FR-AMC fluorescence, no detergent;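 note: plate controls were enzyme without inhibitor for no effect and buffer without enzyme for full effect; nearly all actives have a fitted effect of over 40% in size; top concentration of the series not given in the record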
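Purified cruzain at 1.5 nM, pre-incubated 15 min with compound at room temperature in 100 mM sodium acetate pH 5.5, 5 mM DTT, 0.00005% Triton X-100. Reaction started with 2 uM Z-FR-AMC; AMC fluorescence increase over 60 s gives rate.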
* marks the source's active call; other numbers are inactive results; ? = inconclusive; & = joins results of further samples. Calls come from the whole dose curve; as a rule, active = well fitted curve in the direction sought with a large enough effect; inconclusive = small, poorly fitted or top-dose-only effect, or another doubt; inactive = no such curve, though single readings can be large; an effect the other way counts as inactive or inconclusive. Potency is the fitted concentration of half-maximal effect. Not all compounds are listed; the hit share may differ from the screen's.

Compound | Cruzain inh Det | Cruzain inh noDet
COC(=O)[C@@]1(Cc2ccc(OC)cc2)[C@H]2c3cc(C(=O)N(C)C)n(Cc4ccc(C)o4)c3C[C@H]2CN1C(=O)c1ccccc1 | -2.0% | ?
CCOC(=O)C1=C(c2ccccc2)c2cc(OC)ccc2OC1C(=O)OCC (stereo not drawn) | -2.8% | 7%
CCCCC/C=C\C/C=C\C/C=C\C/C=C\CCCC(=O)NC(C)C(=O)O (stereo not drawn) | 2.0% | -1%
CCCCCCCCc1[se]c2ccccc2c1Br | 2.0% | -1%
CCN1CCCC1Cn1c(-c2ccccc2)nc2c(N(CCOC)CCOC)nc(C)nc21 (stereo not drawn) | -3.9% | 0%
C[C@@]12CC[C@H](O)C[C@@H]1CC[C@H]1[C@@H]2C[C@@H](O)[C@]2(C)[C@@H](C3=CC(=O)OC3)CC[C@]12O | -1.7% | -3%
N#CCCC#N | 8.4% | 17%
CN1[C@H]2CC(=O)C[C@@H]1[C@@H](O)C2 | 1.6% | -8%
O=C(NO)c1ccccc1 | 1.3% | -1%
C[C@@H]1CC[C@@]2(OC1)O[C@H]1[C@@H](O)[C@H]3[C@@H]4CC[C@H]5C[C@@H](O[C@@H]6O[C@H](CO)[C@H](O[C@@H]7O[C@H](CO)[C@@H](O)[C@H](O[C@@H]8OC[C@@H](O)[C@H](O)[C@H]8O)[C@H]7O[C@@H]7O[C@H](CO)[C@@H](O)[C@H](O[C@@H]8O[C@H](CO)[C@@H](O)[C@H](O)[C@H]8O)[C@H]7O)[C@H](O)[C@H]6O)[C@H](O)C[C@]5(C)[C@H]4CC[C@]3(C)[C@H]1[C@@H]2C | -2.4% | ?
NCCC[C@@H](CC(=O)N[C@@H]1CCCC[C@H]1C(=O)N[C@H](CC(=O)N[C@@H](CCC(=O)O)CC(=O)O)Cc1ccccc1)NC(=O)C[C@H](Cc1c[nH]c2ccccc12)NC(=O)[C@@H]1CCCC[C@H]1N | 2.2% | 19%
Cc1ccccc1C1CC(=O)Oc2ccc(O)cc21 (stereo not drawn) | 1.2% | -13%
COC(=O)c1ccc(CN2[C@@H]3C[C@@H](O)CC[C@@H]3C[C@H]2C(=O)OC)cc1 | -4.4% | -3%
O=C=Nc1ccc(Cc2ccc(N=C=O)cc2)cc1 | -19% | 16µM*
CC/C=C1/OC(=O)c2ccccc21 | 5.9% | 0%
CC(C)Oc1ccc2c(=O)cc(-c3ccccc3)oc2c1 | -4.1% | -5%
CCC/C=C(\CCC)C(NC(=O)c1ccccc1)c1ccccc1 (stereo not drawn) | -4.6% | -9%
CCCC[C@@H]1C[C@H]1C(NC(=O)c1ccco1)c1ccccc1 (stereo partly drawn) | -11% | 2%
CCCCCCCCCCCCOCCOCCOCCOCCO | 0.9% | 23%
C=C(C#N)C(=O)OCC | 2.3% | 6%
CCN(CC)CCCn1c(-c2ccccc2)nc2c(NCCOC)nc(C)nc21 | 4.7% | 9%
CC(=O)O[C@@]1(C(C)=O)CCC2C3CC(C)C4=CC(=O)CC[C@@]4(C)C3CC[C@]21C (stereo partly drawn) | -6.4% | ?
CCCCC/C=C\C/C=C\CCCCCCCCCC(=O)NCCO | 1.2% | 18%
C[C@@H](C(=O)Nc1ccc2ccccc2c1)[C@H]1C[C@]1(C)[C@H](NC(=O)Oc1ccc(F)cc1)c1ccccc1 | 0.7% | 16µM*
CCOC(=O)CNc1oc(-c2ccccc2)nc1-c1ccccc1 | -6.6% | 3%
CC(C)(Cl)Cl | 0.2% | -9%
CC(=O)OC[C@H](N)C(=O)c1ccccc1 | 0.7% | -4%
CC[C@@H]1O[C@]2(C=C[C@@H]1C)C[C@H]1C[C@H](CC=C(C)[C@@H](O[C@@H]3C[C@H](OC)[C@H](O[C@@H]4C[C@H](OC)[C@H](O)[C@H](C)O4)[C@H](C)O3)[C@@H](C)C=CC=C3CO[C@@H]4[C@@H](O)C(C)=C[C@@H](C(=O)O1)[C@]34O)O2 | -3.9% | ?
COC(=O)c1ccc(C(/C=C/[C@@H](C)C(=O)NCCc2c[nH]c3ccccc23)NC(=O)OCc2ccccc2)cc1 (stereo partly drawn) | -7.8% | -4%
COC(=O)c1ccc(C(NC(=O)OCc2ccccc2)/C(F)=C/[C@@H](C)C(=O)NCCN2CCOCC2)cc1 (stereo partly drawn) | -4.3% | -8%
Cc1ccc(C)o1 | 0.8% | -2%
CCCCCC1=C2CNC(Cc3ccccc3)(C(=O)OC)C=C2C(C)C1=O (stereo not drawn) | -7.1% | 10%
CC1(C)[C@@H](O)CC[C@]2(C)C3C(=O)C=C4C5C[C@@](C)(C(=O)O)CC[C@]5(C)CC[C@@]4(C)[C@]3(C)CC[C@@H]12 (stereo partly drawn) | -4.5% | ?
CC(=O)OCC(=O)[C@@H]1CC[C@H]2[C@H]3CC[C@H]4C[C@@H](O)CC[C@]4(C)[C@@H]3C(=O)C[C@@]12C | 6.0% | -3%
CC(=O)N1C2(C=CC1(C)C(=O)NCCN1CCOCC1)CCCCC2 (stereo not drawn) | -0.9% | -3%
CO[C@@H]1[C@@H](OC(N)=O)[C@@H](O)[C@H](Oc2ccc3c(O)c(NC(=O)c4ccc(O)c(CC=C(C)C)c4)c(=O)oc3c2C)OC1(C)C | -12% | 27%
O=CN1CC2CC(C1)c1cccc(=O)n1C2 (stereo not drawn) | 1.9% | 11%
CCN(CC)CCCn1c(-c2ccccc2)nc2c(N3CCOCC3)nc(C)nc21 | -2.0% | -7%
COC(=O)[C@@]1(Cc2ccccc2)[C@H]2c3cc(C(=O)N4CCCC4)n(CCO)c3C[C@H]2CN1C(=O)c1ccccc1 | 1.3% | ?
C=C1CCC2[C@](C)(CO)C(O)CC[C@]2(C)C1C/C=C1/C(=O)OCC1O (stereo partly drawn) | 6.8% | -8%
CC1(C)OC2CO[C@]3(COS(N)(=O)=O)OC(C)(C)OC3C2O1 (stereo partly drawn) | 3.2% | 8%
CC[C@H]1C2=C3C(CC[C@H]4C(OC)OC[C@](C)([C@@H]34)N(C(=O)OC(C)(C)C)C2)C(CO)C1CO (stereo partly drawn) | -3.8% | ?
Nc1ccc([N+](=O)[O-])cc1O | -1.3% | -11%
CC(C)(C)OC(=O)NCCCC1=CC2=CC(=O)C(C)(OC(=O)c3cnc4ccccc4n3)C(=O)C2=CO1 (stereo not drawn) | -0.1% | -9%
Cc1ccc(CNC(=O)[C@H](C)[C@@H]2C[C@@]2(C)[C@@H](NC(=O)OCc2ccccc2)c2ccccc2)c(F)c1F | -1.4% | ?
CC(C)C[C@@H](CC(=O)N[C@H](CC(=O)N[C@@H]1CCNC[C@H]1C(=O)N[C@H](CC(=O)N[C@@H](CCC(=O)O)CC(=O)O)Cc1c[nH]c2ccccc12)C(C)C)NC(=O)[C@@H]1CNCC[C@H]1N | 1.1% | -6%
CS(=O)(=O)c1ccc(CNC(=O)[C@H]2C[C@@H]2[C@H](NP(=O)(c2ccccc2)c2ccccc2)c2ccccc2)cc1 | -4.4% | ?
COC(=O)[C@@]1(Cc2ccc(OC)cc2)[C@H]2c3cc(C(=O)N(C)C)n(Cc4cc(F)c(F)c(F)c4)c3C[C@H]2CN1C(=O)c1ccccc1 | -0.8% | ?
COc1ccc(C2=CC3=CC(=O)C(C)(O)C(=O)C3=CO2)cc1 (stereo not drawn) | 3.4% | -1%
COC(=O)C(C(=O)OC)[C@@H](NC(=O)OCc1ccccc1)c1ccccc1 | 0.0% | -16%
NCCC(O)(P(=O)(O)O)P(=O)(O)O | 3.4% | -3%
Clc1nc(Cl)nc(Cl)n1 | 9.2% | 6%
COC(=O)c1ccc(C(NC(=O)c2ccco2)[C@]2(C)C[C@H]2C2CCCCC2)cc1 (stereo partly drawn) | -4.8% | -7%
COC(=O)[C@@]1(Cc2ccc(F)cc2)[C@H]2c3cc(C(=O)N4CCCC4)n(Cc4c(CO)[nH]cc(C)c4=O)c3C[C@H]2CN1C(=O)c1ccccc1 | -0.6% | ?
C[C@@H](C(=O)NCCF)[C@H]1C[C@]1(C)[C@H](NC(=O)OCc1ccccc1)c1ccccc1 | 9.8% | 4%
C[C@@H](O)CCC[C@H](O)/C=C/[C@H]1[C@H](O)CC(=O)[C@@H]1C/C=C\CCCC(=O)O | 2.2% | -3%
C1CCOC1 | 2.6% | 5%
COc1cccc(-c2oc3ccccc3c(=O)c2O)c1 | -5.2% | 3%
N#Cc1ccc(CS(=O)(=O)c2nnnn2C2CCCCC2)cc1 | 5.9% | -3%
C=CCCCCCCC=C | 7.3% | -2%

Structures listed so far that contain fluorine (6):
Compound | Cruzain inh Det | Cruzain inh noDet
C[C@@H](C(=O)Nc1ccc2ccccc2c1)[C@H]1C[C@]1(C)[C@H](NC(=O)Oc1ccc(F)cc1)c1ccccc1 | 0.7% | 16µM*
COC(=O)c1ccc(C(NC(=O)OCc2ccccc2)/C(F)=C/[C@@H](C)C(=O)NCCN2CCOCC2)cc1 (stereo partly drawn) | -4.3% | -8%
Cc1ccc(CNC(=O)[C@H](C)[C@@H]2C[C@@]2(C)[C@@H](NC(=O)OCc2ccccc2)c2ccccc2)c(F)c1F | -1.4% | ?
COC(=O)[C@@]1(Cc2ccc(OC)cc2)[C@H]2c3cc(C(=O)N(C)C)n(Cc4cc(F)c(F)c(F)c4)c3C[C@H]2CN1C(=O)c1ccccc1 | -0.8% | ?
COC(=O)[C@@]1(Cc2ccc(F)cc2)[C@H]2c3cc(C(=O)N4CCCC4)n(Cc4c(CO)[nH]cc(C)c4=O)c3C[C@H]2CN1C(=O)c1ccccc1 | -0.6% | ?
C[C@@H](C(=O)NCCF)[C@H]1C[C@]1(C)[C@H](NC(=O)OCc1ccccc1)c1ccccc1 | 9.8% | 4%

Some values from the entries so far.
COC(=O)[C@@]1(Cc2ccc(OC)cc2)[C@H]2c3cc(C(=O)N(C)C)n(Cc4cc(F)c(F)c(F)c4)c3C[C@H]2CN1C(=O)c1ccccc1 @ Cruzain inh Det = -0.8%
Nc1ccc([N+](=O)[O-])cc1O @ Cruzain inh noDet = -11%
COC(=O)C(C(=O)OC)[C@@H](NC(=O)OCc1ccccc1)c1ccccc1 @ Cruzain inh noDet = -16%
N#Cc1ccc(CS(=O)(=O)c2nnnn2C2CCCCC2)cc1 @ Cruzain inh noDet = -3%

New compounds follow
Compound | Cruzain inh Det | Cruzain inh noDet
COc1ccc2c(c1)OC(=O)CC2c1ccccc1C (stereo not drawn) | -2.4% | -2%
Cc1cc(O)c(C(C)(C)C)cc1Sc1cc(C(C)(C)C)c(O)cc1C | 11% | -13%
C=C(C)C1CCC(C)=CC1c1c(O)cc(O)cc1CCCCC (stereo not drawn) | 0.9% | 5%
COC1=C2C[C@H](C)C[C@H](OC)[C@H](O)[C@@H](C)/C=C(/C)[C@H](OC(N)=O)[C@@H](OC)/C=C\C=C(\C)C(=O)NC(=CC1=O)C2=O | 2.4% | 4%
CCC[N+](=O)[O-] | 4.8% | -6%
COC(=O)c1ccc(C(NC(=O)OCc2ccccc2)/C(C)=C/[C@@H](C)C(=O)NCc2cccnc2)cc1 (stereo partly drawn) | -3.0% | ?
CCC/C=C/C(C)O (stereo not drawn) | 1.2% | 7%
FC(F)(F)c1ccc(-c2noc(-c3ccccc3)c2I)cc1 | -2.9% | ?
O=C1c2c(O)ccc([N+](=O)[O-])c2C(=O)c2c([N+](=O)[O-])ccc(O)c21 | 0.6% | -11%
C[C@]12CC[C@@H]3[C@@H](CCC4=CC(=O)CC[C@@H]43)[C@@H]1CC[C@@H]2OC(=O)CCc1ccccc1 | 0.1% | -1%
CCN(CC)CCCCn1c(-c2ccccc2)nc2c(N(CCOC)CCOC)nc(C)nc21 | -0.7% | 6%
CCCCCCCCCCCCCCCC(=O)NCCc1ccc(O)c(O)c1 | 3.9%&0.3% | -9%&0%
COC(=O)c1ccc(C(NC(=O)OCc2ccccc2)/C(F)=C/[C@@H](C)C(=O)N[C@@H](CO)Cc2ccccc2)cc1 (stereo partly drawn) | -0.8% | 5%
CC(C)(O)C(=O)O | 5.1% | 4%
NC=O | 2.7% | 4%
CCCc1cc2c(n1CCc1ccc(Cl)cc1)C(C)C1CN(C(=O)c3ccccc3)C(C)(C(=O)OC)C21 (stereo not drawn) | -6.1% | ?
Cc1cc(C2(c3cc(C)c(O)cc3C)OS(=O)(=O)c3ccccc32)c(C)cc1O | -8.4% | 8%
Cc1nc(NCc2ccccc2)c2nc(-c3ccccc3)n(C(C)CN(C)C)c2n1 (stereo not drawn) | -0.8% | 3%
CC(C)C[C@@H](CC(=O)N[C@H](CC(=O)N[C@@H]1CCNC[C@H]1C(=O)N[C@H](CC(=O)N[C@@H](CCC(=O)O)CC(=O)O)CC(C)C)C(C)C)NC(=O)[C@@H]1CCCC[C@H]1N | 4.2% | 18%
COC(=O)C12CC3=CC(CC3=O)Cc3ccccc3[C@@H]1CNC2=O (stereo partly drawn) | -1.1% | -6%
O=[N+]([O-])c1ccccc1CCO | 0.0% | -9%
O=C1C=C(NCCO)C(=O)c2cnccc21 | -7.9% | -15%
CC(C)(O)C(Cl)(Cl)Cl | 1.9% | 4%
NC(=O)OC[C@H](O)COc1ccc(Cl)cc1 | 1.2% | -6%
Cc1ccc2cccnc2c1 | 4.1% | 4%
COc1ccc(C(=O)OC2C[C@H]3CC[C@@H](C2)N3C)cc1OC (stereo partly drawn) | 0.7% | -8%
Cc1ccc(C(=O)O)cc1 | 4.5% | -10%
CC(=O)N1CC[C@@H]2CC(=O)C[C@@H](C)[C@@H]21 | -1.6% | 3%

Screening results from PubChem.
